ALR H2O2 inh – blocks human ALR sulfhydryl oxidase activity; purified ALR, DTT oxidation, H2O2 HRP-luminol luminescence; 3.8% of 290,000 active; P55789; inhibition, % (no concentration beside the values);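 active = mean and each replicate at 75% or more; inconclusive = only one of the two met; inactive = neither met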;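 also: stock transfer was 7.5 nL into about 7.5 µL; 0% = neutral wells and 100% = wells with inactivated enzyme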
E coli growth – blocks Escherichia coli growth; OD600, 23 h; stronger effect = lower value; 0.21% of 330,000 active; AID 1053175; OD600 absorbance (no concentration beside the values);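 active = OD600 absorbance below the run mean of sample wells minus 3.6 SD, in any replicate, cut at about 0.56 in these data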;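 also: stock transfer was 300 nL into about 60 µL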
rRNA inh HTS – selective bacterial rRNA inhibition in E. coli; E. coli WT GFP vs humanized-ribosome RFP mutants, fluorescence, 24 h; stronger effect = lower value; DMSO median 0, no signal -100; GFP signal change (wild-type ribosome), % (no concentration beside the values); 1.6% of 350,000 active;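 active = significant combined selectivity score with lowered wild-type GFP, culture density cut under 30%, mutant RFP and density less affected; inactive = any of these conditions unmet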; also: one replicate is shown; some compounds called inactive have numbers as strong as hits
Vif TR-FRET – inhibitors of Vif binding to APOBEC3G peptide, primary screen, biochemical, TR-FRET, GST-Vif 1-94, biotin-A3G peptide, dose response retest (AID 1117319); TR-FRET GST-Vif / biotin-A3G peptide binding; higher % means a stronger effect; test concentration not given here; strong numbers were not always called active; inhibition, %, or IC50 in µM where a hit was titrated; 0.57% of 260,000 active;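 active = above the screen mean plus three standard deviations and confirmed in dose response; inconclusive = results disagree or hit not tested in dose response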;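 also: Vif residues 1-94 fused to GST binding biotinylated APOBEC3G peptide 110-148; 0% = full assay without inhibitor and 100% = GST in place of GST-Vif; retest series ran down from 100 µM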
MLL AF4-AF9 inh – inhibitors of human MLL-AF4/AF9 interaction | P42568 | AlphaScreen, biotin-AF4 peptide binding to FLAG-AF9 | inhibition, % at 10 µM | 0.47% of 350,000 active | AID 651704;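 active = every replicate reaching a set inhibition limit, whatever the replicate mean, cut at about 25% in these data; inconclusive = mean inhibition reaches that limit but some replicates miss it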;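 also: 0% = plate neutral control median and 100% = total signal loss; the record names both 10 and 1 µM as test concentration; the first replicate is given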
Target sequence (P42568 whole entry, looked up): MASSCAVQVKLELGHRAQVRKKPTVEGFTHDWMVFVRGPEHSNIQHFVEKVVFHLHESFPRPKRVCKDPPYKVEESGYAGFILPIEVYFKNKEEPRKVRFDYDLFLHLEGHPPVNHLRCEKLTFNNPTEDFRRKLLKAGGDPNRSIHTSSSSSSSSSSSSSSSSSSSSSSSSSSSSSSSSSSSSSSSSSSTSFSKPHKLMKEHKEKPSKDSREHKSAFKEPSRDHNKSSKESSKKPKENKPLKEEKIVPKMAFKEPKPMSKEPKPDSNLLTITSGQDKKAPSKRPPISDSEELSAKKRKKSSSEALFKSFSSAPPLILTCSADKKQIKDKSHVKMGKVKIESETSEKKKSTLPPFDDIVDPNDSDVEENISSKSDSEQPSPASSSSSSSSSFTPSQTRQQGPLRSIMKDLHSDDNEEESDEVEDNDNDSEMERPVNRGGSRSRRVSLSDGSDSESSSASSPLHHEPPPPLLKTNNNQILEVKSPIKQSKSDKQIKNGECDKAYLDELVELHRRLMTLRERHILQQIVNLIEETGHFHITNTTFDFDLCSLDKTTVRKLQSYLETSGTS
HNF4A DNA FP – change in binding of human HNF4 alpha to DNA. 0.3% of 360,000 active. HNF4a-FITC DNA binding, fluorescence polarization, 1 h. AID 1224865. P41235. activity change, % at 10 µM; in the data active = activity change above about 30%, passing the limit was not always enough;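 also: controls were the assay level and a saturating level of protein; the project sought stronger binding though the title names inhibitors; some compounds called inactive have numbers as strong as hits; positive values seem to mean higher polarization but the record does not say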
Target sequence (P41235 whole entry, looked up): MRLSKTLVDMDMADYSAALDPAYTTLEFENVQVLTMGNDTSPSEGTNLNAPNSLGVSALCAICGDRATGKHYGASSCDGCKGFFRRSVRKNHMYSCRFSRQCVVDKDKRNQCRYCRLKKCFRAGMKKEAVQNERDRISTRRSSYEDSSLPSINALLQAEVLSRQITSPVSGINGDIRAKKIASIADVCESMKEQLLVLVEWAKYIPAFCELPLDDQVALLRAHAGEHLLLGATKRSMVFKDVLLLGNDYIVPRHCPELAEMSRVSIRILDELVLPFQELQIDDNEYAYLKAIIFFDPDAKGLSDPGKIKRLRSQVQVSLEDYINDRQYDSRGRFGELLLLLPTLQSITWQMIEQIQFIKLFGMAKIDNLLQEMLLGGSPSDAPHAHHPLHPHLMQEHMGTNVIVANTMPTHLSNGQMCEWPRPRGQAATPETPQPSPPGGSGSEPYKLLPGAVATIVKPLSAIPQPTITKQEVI
FGF22 binding – shifts melting point of recombinant human FGF22. Q9HCT0. recombinant FGF22 thermal shift, SYPRO orange fluorescence; percent of sucrose octasulfate shift, DMSO zero. calls only at 9.99 µM. 1.5% of 340,000 active. AID 651658;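 active = melting point raised past a set limit in the mean and every replicate; inconclusive = no clear call; three in four hits are not shown here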
rRNA inh HTS OD600 – further read-out of rRNA inh HTS, marked with its call; OD600 change, %; measured here: OD600 growth;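 optical density of the mix in the first replicate; 0 = DMSO median and -100 = no signal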
rRNA inh HTS RFP – second read-out of rRNA inh HTS, no call of its own (marks repeat the call); RFP signal change, %; measured here: RFP humanized mutant strains;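 first replicate; 0 = DMSO median and -100 = no signal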
Active calls of the source: *; i = inactive; ? = inconclusive; · = no result given; + = active, no number; & = joins results of further samples.

ALR H2O2 inh	E coli growth	rRNA inh HTS	rRNA inh HTS OD600	rRNA inh HTS RFP	Vif TR-FRET	MLL AF4-AF9 inh	HNF4A DNA FP	FGF22 binding	Compound
91*	0.65	·	·	·	85%	·	1.1	·	O=C(Nc1ccc2c(c1)OCCO2)N1CCN(c2ccccc2)CC1
-4	0.68	-3	-1	3.8	0%	3.1	2.3	i	C=C(C)COc1ccc(-c2ncnc(C(F)(F)F)c2-c2ccc(OC)cc2)c(O)c1
-11	·	6	7	1.1	·	-28	2.9	i	Cc1ccc(S(=O)(=O)N2CCN(C(=O)c3cc(-c4cccs4)nn3-c3ccccc3)CC2)cc1
·	·	-7	-10	3.2	·	-10	-2.2	i	CCC(C)CNC(=O)c1[nH]c(C(F)(F)F)nc1-c1ccccc1 (stereo not drawn)
·	·	-14	-52	6.4	·	1.0	3.5	i	CCc1nc2c(OCc3cccc(Cl)c3)cccn2c1N(C)C(=O)c1ccc(OC)cc1
-1	0.67	·	·	·	15%	·	-2.5	·	O=C(CN1CCC(n2nnc3cc(F)ccc32)CC1)NC1CC1
·	0.73	·	·	·	2%	·	-0.6	·	Clc1ccc(Oc2nnnn2-c2ccccc2)cc1
-7	0.69	4	11	-1.2	4%	-1.1	0.7	i	CC(=O)Nc1nnc(SCC(=O)NCc2ccc3c(c2)OCO3)s1
·	0.65	1	4	-2.4	·	0.0	-0.7	i	O=C(Nc1ccccc1O)c1ccc(C(=O)c2ccccc2)o1
·	·	3	6	2.1	·	-0.6	·	i	COCC(=O)Nc1ccc2c(c1)OC[C@@H](C)N(Cc1cccnc1)C[C@H](C)[C@H](OC)CN(C)C2=O
2	0.73	6	9	-0.3	-1%	-5.6	-3.3	i	Cc1ccc(N2CC(c3nc4ccccc4[nH]3)CC2=O)c(C)c1 (stereo not drawn)
-4	0.61	4	0	-7.0	-2%	-3.0	0.9	i	O=C(CC(O)(c1ccccc1)C(F)(F)F)c1cccs1 (stereo not drawn)
-11	0.73	21	18	-0.5	1%	·	-0.2	·	Cc1cc(C)nc(NC(=O)C(C)C)n1
-28	·	2	9	0.6	·	1.4	3.6	i	Fc1ccc(-c2ccc(/C=N/n3cnnc3)o2)cc1
-14	0.69	·	·	·	68%	0.5	-1.7	·	CCCC(=O)Nc1ccccc1NC(C)=O

Continued (2 carried over from the part before).
ALR H2O2 inh	E coli growth	rRNA inh HTS	rRNA inh HTS OD600	rRNA inh HTS RFP	Vif TR-FRET	MLL AF4-AF9 inh	HNF4A DNA FP	FGF22 binding	Compound
-28	·	2	9	0.6	·	1.4	3.6	i	Fc1ccc(-c2ccc(/C=N/n3cnnc3)o2)cc1
-14	0.69	·	·	·	68%	0.5	-1.7	·	CCCC(=O)Nc1ccccc1NC(C)=O
·	·	-1	-5	6.5	·	4.8	·	i	CN1CCN(C(=O)[C@@H]2[C@@H](CO)[C@@H]3Cn4c(ccc(/C=C/c5ccccc5)c4=O)[C@@H]3N2CC2CC2)CC1
5	0.66	3	2	0.7	-16%	6.5	2.0	i	Cc1c(NC(=S)NC(=O)c2cc3ccccc3o2)c(=O)n(-c2ccccc2)n1C
56	0.66	-22	-18	0.3	15%	-24	11	i	Cc1cc(C(C)(C)C)cc(S(=O)(=O)Nc2cccc(C(=O)O)c2)c1C
·	·	1	4	-4.0	·	-3.2	·	i	Cc1ccc(S(=O)(=O)N[C@@H]2CC[C@@H](CC(=O)O)O[C@H]2CO)cc1
82*	·	0	4	-3.0	5%	-9.2	1.1	i	CCC(C)Nc1nc2c(c(=O)[nH]c(=O)n2C)n1CCCc1ccccc1 (stereo not drawn)
·	·	0	-7	-3.8	·	-1.5	·	i	O=C(C[C@H]1CC[C@H]2[C@@H](COC[C@H](O)CN2C(=O)c2ccncc2)O1)NC1CCC1
·	·	-1	-3	3.1	·	5.4	·	i	CCS(=O)(=O)N1C[C@@H](C)[C@H](OC)CN(C)C(=O)c2ccc(NC(=O)Nc3ccccc3Cl)cc2OC[C@H]1C
1	0.66	·	·	·	2%	·	0.8	·	O=C(Nc1cccc(F)c1)c1cc(S(=O)(=O)N2CCC(C(=O)O)CC2)ccc1F
·	·	3	-2	0.1	·	0.5	·	i	C[C@H](CO)N1C[C@H](C)[C@H](CN(C)S(=O)(=O)c2cn(C)cn2)Oc2ccc(NC(=O)Cn3cnnn3)cc2C1=O
100*	·	-34	-65	11	-3%	10	-1.0	+	COc1cc(/C=N/NC(=O)c2cc3ccccc3[nH]2)ccc1O
·	·	-1	1	-1.8	·	-2.2	·	i	CC(=O)N[C@@H]1CC[C@H](CC(=O)NCC2CCCCC2)O[C@H]1CO
·	·	-27*	-17*	-2.9*	25%	-6.4	5.1	i	O=C1C=C(NCCc2cc(Br)c(O)c(Br)c2)C(=O)c2ncccc21
·	·	3	-1	-0.4	·	-13	·	i	COc1ccc(S(=O)(=O)N2C[C@H](O)COC[C@H]3O[C@@H](CC(=O)NCCN4CCCCC4)CC[C@@H]32)cc1
1	0.73	·	·	·	-2%	·	1.1	·	COc1ccc(CNC(=O)c2csc(Cc3ccccc3)n2)cc1
-6	0.64	-2	-2	-2.4	1%	1.7	-3.3	i	Cc1ccccc1S(=O)(=O)Cc1ccc(C(=O)NCc2ccccc2)o1
-1	0.73	·	·	·	5%	·	7.0	·	COc1ccc(-c2sc(NC(=O)c3ccc(C)cc3)nc2-c2ccc([N+](=O)[O-])cc2)cc1
2	0.71	2	5	1.9	-6%	·	-2.3	·	CCCCC(=O)NC(NC(=S)N1CCOCC1)C(Cl)(Cl)Cl (stereo not drawn)
-3	0.71	·	·	·	·	·	3.0	·	Cc1ccccc1NC(=S)N1CCCC1
0	0.72	19	19	6.1	·	-1.9	4.4	·	COC(=O)c1ccc(N2C(=O)Nc3ccccc3N2O)cc1
·	0.69	-3	5	-3.6	·	-2.3	12	i	COc1cccc2c(Cl)c(CC=C(Cl)Cl)c(C)nc12
5	0.63	12	17	1.6	-3%	-0.6	0.6	i	CCC1=NC(c2ccc(Br)cc2)N(O)C1(C)C (stereo not drawn)
·	·	-5	-2	-0.7	·	-1.5	·	i	COc1ccc(NC(=O)N(C)C[C@H]2OCCCC[C@H](C)Oc3ccc(NC(=O)Nc4ccc(F)cc4)cc3C(=O)N([C@H](C)CO)C[C@@H]2C)cc1
·	·	17	16	1.8	-3%	0.3	-1.4	i	CON=C1C=C(C)C(=O)C(C)=C1C
-3	0.69	-9	-19	3.4	5%	-2.4	0.7	i	CCc1cc2c(COC(=O)c3cccc(NS(C)(=O)=O)c3)cc(=O)oc2cc1O
·	0.67	-12	-13	16	1%	0.0	-0.1	i	Cc1ccc(Cn2ccc(NC(=O)c3cc(C4CC4)on3)n2)cc1
-4	0.75	·	·	·	2%	·	3.7	·	CCOc1ccc(NC(=O)CSC2=C(C#N)C(c3ccc4c(c3)OCO4)CC(=O)N2)cc1 (stereo not drawn)
·	·	0	-15	-4.5	-4%	0.7	0.7	i	Cc1cc(C)cc(NC(=O)C(=S)NCc2ccccc2)c1
·	·	4	9	1.3	·	-0.3	·	i	COc1cccc(S(=O)(=O)N[C@H]2CC[C@H](CC(=O)NCc3ccncc3)O[C@@H]2CO)c1
1	0.62	7	10	1.4	4%	-3.5	-0.9	i	Cn1c(SCC(=O)NC2CCCCC2)nnc1-c1ccccc1F
-11	0.72	·	·	·	?	·	0.9	·	COc1cc(OC)c(OC)cc1CNC1CCCCCC1
0	·	-3	2	-1.8	·	-3.8	-8.1	i	Clc1ccc(C2[C@H]3CN(CC4CCCCC4)[C@H](c4ccccc4)C34CC2(c2ccccc2)C4)cn1 (stereo partly drawn)
28	0.7	8	4	1.0	·	5.6	-4.4	i	Cc1cccc(C(=O)Nc2ccccc2C(=O)Nc2ccc(C(=O)O)cc2)c1
-7	0.67	9	3	-1.3	2%	-0.6	1.5	i	CCN1CCN(C(=S)Nc2ccc(C(C)=O)cc2)CC1
·	·	·	·	·	2%	-0.2	-1.8	i	COCOCCn1cc(CN2CCS(=O)(=O)N(Cc3ccc(-c4ccc(Cl)cc4)cc3)C(C)C2=O)nn1 (stereo not drawn)
-2	0.69	8	4	-2.1	-6%	-0.2	0.7	i	CC(C)C(=O)N1CCC2(CC1)Oc1ccc(F)cc1C(=O)C21CC(c2ccc(Cl)cc2)=NO1 (stereo not drawn)
-13	0.72	17	1	-5.1	·	-2.4	2.9	i	O=C(NCc1cccc(F)c1)c1cccc2c1C(=O)c1ccc(Cl)cc1S2(=O)=O
97*	0.73	·	·	·	6%	0.9	-1.4	i	CC(=O)c1ccc(S(=O)(=O)N2CCNC(=O)C2)cc1
-6	0.65	·	·	·	0%	·	0.5	·	Clc1ccc(CSc2nncn2-c2ccccn2)cc1
-3	0.74	·	·	·	-2%	·	2.2	·	COc1ccc(F)cc1S(=O)(=O)N1CCC(C(N)=O)CC1
2	·	-2	7	0.0	·	-0.2	-2.8	i	Cc1ccc(S(=O)(=O)Nc2ccc3c(c2)CC(=O)N([C@H](C)CO)C[C@@H](C)[C@H](CN(C)Cc2ccc(-c4ccccc4)cc2)O3)cc1
·	0.75	·	·	·	-3%	·	-1.1	·	COCCCNC(=O)c1ccc2c(c1)ncn2-c1ccccc1OC
-2	0.67	·	·	·	22%	·	1.6	·	Cc1ccc([N+](=O)[O-])cc1NC(=O)CCCOc1ccccc1
-2	0.7	-1	5	0.2	·	-0.3	-2.2	i	CC(Oc1ccc2ccc(=O)oc2c1)C(=O)NCC1CCC(C(=O)O)CC1 (stereo not drawn)
10	0.65	-4	-3	-1.0	?	4.6	-17	i	Cc1cc(C(=O)O)ccc1-c1ccc(/C=C2\NC(=O)N(Cc3ccc(F)cc3)C2=O)o1
34	0.63	-15	-33	0.6	·	0.5	1.2	i	CSc1cccc(NC(=O)c2[nH]c(C)c(C(C)=O)c2C)c1
·	0.66	·	·	·	11%	·	0.0	·	COc1cc(C(=O)OCC(=O)Nc2ccc3c(c2)OC(F)(F)O3)ccc1OCc1c(C)noc1C
-2	0.63	·	·	·	-1%	·	-0.7	·	CN(C)S(=O)(=O)c1ccc2c(c1)nc1n2CCC1
20	0.75	-22	-31	-5.4	8%	-0.3	2.5	i	COc1ccccc1C(=O)N(Cc1nc(-c2ccc(Cl)cc2)no1)C(C)C
-7	·	·	·	·	10%&1%	·	2.0	·	Cc1nn(-c2ccccc2)c(C)c1/C=N/NC(=O)CSc1nc2ccccc2c(=O)n1-c1ccc(Br)cc1
-2	0.68	6	4	-1.7	-3%	·	-2.4	·	CCOC(=O)C1CCN(C(=O)CN(Cc2ccccc2)S(C)(=O)=O)CC1
·	0.75	-9	-13	2.8	6%	2.6	-0.5	i	O=C(COc1ccc(Cl)cc1)N1CCN(c2ccc([N+](=O)[O-])c(N3CCCCC3)c2)CC1
·	0.67	·	·	·	14%	·	0.1	·	Cn1c(NN)nc2sc3c(c2c1=O)CCC3
1	0.7	-3	-3	-1.1	·	-3.6	1.1	i	CC(Sc1nnc(C2CC2)n1N)C(=O)NC1CCCCC1C (stereo not drawn)
·	·	-1	-11	4.1	·	4.4	·	i	C[C@H](CO)N1C[C@H](C)[C@@H](CN(C)C(=O)Nc2cccc3ccccc23)OCCCC[C@H](C)Oc2ccc(NC(=O)CCCN(C)C)cc2C1=O
-3	0.73	·	·	·	11%	·	-4.7	·	CCOC(=O)N1CCN(C(=O)CSc2nc3c(c(=O)n2-c2ccccc2OC)SCC3)CC1

These rows are one share of the data. The share of hits here may be higher or lower than overall.
